# Screening data as filed in PubChem BioAssay.
# CtBP-E1A blk – qHTS Assay for Inhibitors of the CtBP/E1A Interaction; CtBP / adenovirus E1A interaction (AlphaScreen); AlphaScreen GST-E1A/His-CtBP binding, 1536-well; stronger effect = lower value; control for the full effect not named in the record; activity change, % (concentration not given with the values); 0.49% of 340,000 active; in the data active means activity change below about -65%; inconclusive means about -30% to -65%; inactive means above about -30%; note: % is set by controls: 0 for no effect and ±100 for the full control effect
#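 Homogeneous bead-based format: GST-tagged E1A captured on glutathione donor beads, His-tagged CtBP on nickel acceptor beads; compounds precede bead addition by 2 h at 37 °C.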
# gsp agonist – qHTS for Agonist of gsp, the Etiologic Mutation Responsible for Fibrous Dysplasia/McCune-Albright Syndrome: qHTS; 0.13% of 340,000 active; Potency, µM (highest dose often 76.9 µM), for inactives: top-dose activation (cAMP increase), usual class: activators; AID 624287, 2012; gsp mutant cells, cAMP HTRF, 30 min; control for the full effect not named in the record; active = well fitted activation curve with a large enough effect; inconclusive = small, poorly fitted or top-dose-only effect, or another doubt; inactive = no such curve, though single readings can be large or run the other way; cell line not stated here;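 note: phosphodiesterase inhibitor Ro 20-1724 added with compounds to block cAMP breakdown; potency is the fitted concentration of half-maximal effect; nearly all actives have a fitted effect of over 60% in size; about a fifth of the inactives were tested at one dose only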
#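 Cells stably selected in G418 were plated at 2000/well, grown 16-24 hr, then given compounds in DMSO with the PDE inhibitor […] (300 uM solution added) for 30 min at 37C; cAMP was read by HTRF.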
# gsp antagonist – qHTS for Antagonists of gsp, the Etiologic Mutation Responsible for Fibrous Dysplasia/McCune-Albright Syndrome: qHTS; gsp-mutant cells, cAMP HTRF, 30 min; control for the full effect not named in the record; Potency, µM (series often up to 76.9 µM), without a hit: at the highest dose activity change, negative = inhibition, most hits filed as inhibitors; 0.4% of 340,000 active; AID 624288, 2012; active = falling curve of any shape with a large fitted effect; inconclusive = falling curve, mostly with a smaller effect; inactive = flat or rising curve; cell line not stated here;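 note: intracellular cAMP measured with PDE inhibitor Ro 20-1724 present during compound exposure; potency is the fitted concentration of half-maximal effect; % is set by controls: 0 for no effect and ±100 for the full control effect; nearly all actives have a fitted effect of over 65% in size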
#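 Measurement of cellular cAMP by homogeneous time-resolved fluorescence following a 30 min compound exposure at 37C. The PDE inhibitor […] was present throughout; the assay buffer was DPBS with 0.05% BSA and 0.005% Tween 20.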
# D2 potentiator – Beta-Arrestin HTS for Positive Allosteric Modulators of the Human D2 Dopamine Receptor: Potentiators | D(2) dopamine receptor (Homo sapiens), P14416 | DiscoveRx D2 beta-arrestin cells, luminescence, 90 min; 100% = 57 uM dopamine signal | potentiation, % (no concentration beside the values) | 0.23% of 360,000 active | AID 624464, 2012; active = potentiation of 50% or more; inconclusive = 30% to 50%; inactive = 30% or less;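 note: compound concentration not given in the record; tested on top of an EC20 dose of dopamine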
#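 D2 cells co-treated with compound plus 50 nM dopamine (EC20) for 90 min at 37 deg C to detect potentiation. Beta-arrestin recruitment was read as enzyme-fragment luminescence after 1 h at ambient temperature. Full response was set by 57 uM dopamine.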
# D2 agonist – Beta-Arrestin HTS for Positive Allosteric Modulators of the Human D2 Dopamine Receptor: Agonists; D(2) dopamine receptor (Homo sapiens), P14416; DiscoveRx PathHunter D2 beta-arrestin, luminescence, 90 min; 100% = 57 uM dopamine signal; activation, % (concentration not given with the values); 0.084% of 360,000 active; AID 624465, 2012; in the data active = activation above about 40%; inconclusive = about 15% to 40%; inactive = below about 15%; note: compound concentration not given in the record; the text of the record calls up to 30% inactive
#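 Agonist mode: compounds alone added to overnight-plated D2 PathHunter cells for 90 min at 37 C, with 57 uM final dopamine (EC100) defining full response. Beta-arrestin recruitment detected by chemiluminescent reagent, read after 1 h at ambient temperature.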
# Six1-Eya2 inh – qHTS Assay for Inhibitors of the Six1/Eya2 Interaction. activity change, % (test concentration not listed). 0.56% of 360,000 active. AlphaScreen GST-Six1/His-Eya2 binding, biochemical; stronger effect = lower value; control for the full effect not named in the record. Homeobox protein SIX1 (Homo sapiens) + Protein phosphatase EYA2 (Homo sapiens), …; in the data active = activity change below about -65%; inconclusive = about -30% to -65%; inactive = above about -30%; note: % is set by controls: 0 for no effect and ±100 for the full control effect; compound concentration not given in the record
# Target sequence (O00167 whole entry, looked up): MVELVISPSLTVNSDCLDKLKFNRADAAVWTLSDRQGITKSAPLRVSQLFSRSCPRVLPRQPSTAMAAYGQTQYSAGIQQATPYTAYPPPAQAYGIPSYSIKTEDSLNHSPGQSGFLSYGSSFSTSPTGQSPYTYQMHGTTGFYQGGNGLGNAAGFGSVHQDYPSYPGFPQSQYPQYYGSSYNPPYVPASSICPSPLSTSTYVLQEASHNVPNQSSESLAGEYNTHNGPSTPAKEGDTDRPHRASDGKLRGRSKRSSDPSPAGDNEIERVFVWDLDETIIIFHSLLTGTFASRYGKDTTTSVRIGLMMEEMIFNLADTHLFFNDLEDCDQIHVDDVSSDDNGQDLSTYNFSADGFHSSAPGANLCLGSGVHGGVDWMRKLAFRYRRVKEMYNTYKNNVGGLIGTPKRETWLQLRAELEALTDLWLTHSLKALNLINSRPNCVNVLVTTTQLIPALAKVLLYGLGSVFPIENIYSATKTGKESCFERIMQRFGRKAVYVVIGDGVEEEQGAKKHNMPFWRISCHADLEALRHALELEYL
# Target sequence (Q15475 whole entry, looked up): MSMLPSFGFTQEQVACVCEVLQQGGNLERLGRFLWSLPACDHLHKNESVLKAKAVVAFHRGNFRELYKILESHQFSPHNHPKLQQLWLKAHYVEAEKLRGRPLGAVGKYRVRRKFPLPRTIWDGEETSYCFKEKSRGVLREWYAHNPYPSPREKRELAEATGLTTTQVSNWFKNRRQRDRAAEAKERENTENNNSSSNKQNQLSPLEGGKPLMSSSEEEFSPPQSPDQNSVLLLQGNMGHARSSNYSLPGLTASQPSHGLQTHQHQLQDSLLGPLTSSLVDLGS
#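 GST-Six1 + His-Eya2 (5X stock: 250/500 nM); Tris pH 8.0, 300 mM NaCl, 0.05% BSA, 0.02% Tween 20; GSH donor/Ni acceptor beads; 1 h 37 °C dark; AlphaScreen readout.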
# * = called active by the depositor; ? = inconclusive; . = not tested or not shown; [ ] = dose if it differs, or a comment.
# Keys – A = CtBP-E1A blk; B = gsp agonist; C = gsp antagonist; D = D2 potentiator; E = D2 agonist; F = Six1-Eya2 inh
molecule: CC(C1CC2CCC1C2)N1CC(O)=C(c2nc3ccccc3[nH]2)C1=N (stereo not drawn)
  A: -15	B: 7%[15.4 µM]	C: -18%	D: -4	E: -3.5	F: -22

molecule: CCOc1ccc(NC(=O)c2sc(N3CCOCC3)nc2-c2ccccc2)cc1
  A: 2	B: -3%	C: -16%	D: -23	E: -2.2	F: 4

molecule: CC(=O)Nc1cccc2c1C(=O)N(c1ccc(C)cc1)C2=O
  A: -6	B: -4%	C: -10%	D: ?	E: 6.7	F: 0

molecule: COc1ccc(NC(=O)c2oc3ccc(S(=O)(=O)N4CCOCC4)cc3c2C)c(OC)c1
  A: -1	B: 3%[15.4 µM]	C: 3%	D: -1	E: -0.1	F: 7

molecule: COc1cc(C(=S)N2CCOCC2)cc(OC)c1OC(=O)c1cc([N+](=O)[O-])cc([N+](=O)[O-])c1
  A: -1	B: -10%	C: -10%	D: 13	E: 11	F: -14

molecule: CC12CC(c3ccccc3O1)N(C(=O)c1ccco1)C(=S)N2c1ccccc1 (stereo not drawn)
  A: -16	B: 12%	C: -7%	D: -15	E: -3.4	F: -13

molecule: COc1ccc(CNn2c(-c3cccs3)nc3ccccc3c2=O)cc1OC
  A: .	B: 21%[15.4 µM]	C: -27%	D: 9	E: 6.8	F: -4

molecule: CCCNC(=O)CN1C(=O)NC(CCSC)C1=O (stereo not drawn)
  A: 3	B: ?	C: 13%	D: 0	E: -8.1	F: 7

molecule: Cn1c(=O)c(Nc2ccc(Cl)cc2)c2c3c(cccc31)C(=O)c1ccccc1-2
  A: .	B: 2%[15.4 µM]	C: 1%	D: 0	E: -5.3	F: -3

molecule: CC(C)CNC(=O)CSc1ccc(S(=O)(=O)N2CCN(C)CC2)cn1
  A: -6	B: 11%	C: 12%	D: -1	E: -1.4	F: 1

molecule: Cc1ccc(Nc2n[nH]c(C)c2[N+](=O)[O-])cc1
  A: -19	B: -3%	C: 0%	D: -22	E: -2.2	F: -14

molecule: O=C(/C=C/c1ccc([N+](=O)[O-])cc1)NCCSCc1ccco1
  A: -7	B: -18%	C: -2%	D: -11	E: 3.4	F: -12

molecule: Cc1ccc(C2(C(F)(F)F)NC(=O)N3C(=C2C#N)Nc2ccccc23)cc1 (stereo not drawn)
  A: 5	B: 35%	C: 3%	D: -2	E: -2.8	F: -2

molecule: CCn1c(=O)c(=O)[nH]c2cc(C(=O)NCC3CCCCC3)ccc21
  A: -1	B: 6%	C: 8%	D: -7	E: -1.4	F: -6

molecule: Cc1ccc(C2(C)NC(=O)N(CC(=O)N(c3ccccc3)C3CCS(=O)(=O)C3)C2=O)cc1 (stereo not drawn)
  A: 2	B: 27%	C: 1%	D: -5	E: -0.4	F: 4

molecule: CC1(NC(=O)NCc2ccco2)CCS(=O)(=O)C1 (stereo not drawn)
  A: .	B: -15%	C: 6%	D: -1	E: -5.8	F: -11

molecule: COC(=O)[C@@H]1Cc2c([nH]c3ccccc23)C(C)(C)N1C(=O)CCl
  A: 3	B: -33%[inhibitor][15.4 µM]	C: 6%	D: -5	E: 1.7	F: 12

molecule: COc1cc(CC(=O)N2CCC(n3nccc3NC(=O)C3CC3)CC2)cc(OC)c1OC
  A: 17	B: 9%	C: 18%	D: -3	E: -4.8	F: 0

molecule: CS(=O)(=O)c1cccc(NC(=O)C2CCCN2S(=O)(=O)c2ccc(F)cc2)c1 (stereo not drawn)
  A: 5	B: -26%	C: 5%	D: -18	E: -2.5	F: 6

molecule: Cc1noc(COc2ccccc2OCC(N)=O)n1
  A: 3	B: 2%[15.4 µM]	C: 4%	D: -8	E: -5.1	F: -2

molecule: COc1ccc(CCNC2=NCC(C)S2)cc1 (stereo not drawn)
  A: -4	B: 7%	C: 3%	D: -11	E: -2.2	F: 1

molecule: COc1ccc(C2=NC(C)(C)Cc3cc(OC)c(OC)cc32)cc1OC
  A: 11	B: -14%	C: 22%	D: -2	E: -1.7	F: 4

molecule: CN(C)CCCNC(=O)C[C@H]1C[C@H](C(=O)N2CCCCC2)[C@@]2(CCc3ccccc3)c3[nH]c4ccc(Cl)cc4c3CCN2C1=O
  A: -23	B: .	C: 11%	D: 2	E: -1.5	F: 0

molecule: C[C@@H]1CN([C@@H](C)CO)C(=O)CCCn2cc(nn2)CO[C@H]1CN(C)S(=O)(=O)c1ccc(C#N)cc1
  A: 0	B: -16%	C: .	D: 0	E: 3.0	F: 0

molecule: COc1ccc(C(C(=O)NC2CCCCC2)N(C(=O)CCl)c2ccc(C)cc2)cc1 (stereo not drawn)
  A: 10	B: 16%	C: 11%	D: 15	E: -7.8	F: 2

molecule: O=C(COC(=O)/C=C/c1ccc(OC(F)F)cc1)NCc1cccs1
  A: -11	B: -35%[inhibitor]	C: 8%	D: -14	E: -2.4	F: -1

molecule: COc1cccc(N2CCN(C(=O)C3CCN(C(=O)Nc4ccccc4)CC3)CC2)c1
  A: 0	B: 14%	C: .	D: -14	E: -1.7	F: -1

molecule: O=c1c(=NNc2ccccc2Cl)c(=O)c2ccccc12
  A: -1	B: -44%[inhibitor]	C: 2%	D: 4	E: -2.0	F: -5

molecule: O=C(c1ccccc1)N1CN2CN(C(=O)c3ccccc3)CC([N+](=O)[O-])(C2)C1
  A: 4	B: -8%	C: 14%	D: -17	E: 1.1	F: 3

molecule: Cc1ccc(CNC(=O)COC(=O)C2CCN(S(=O)(=O)c3cccs3)CC2)cc1
  A: 2	B: ?	C: 35µM*	D: 1	E: 7.3	F: 2

# Structural class, the compounds so far containing a thiophene ring, fused or not
# Keys – A = CtBP-E1A blk; B = gsp agonist; C = gsp antagonist; D = D2 potentiator; E = D2 agonist; F = Six1-Eya2 inh
molecule: COc1ccc(CNn2c(-c3cccs3)nc3ccccc3c2=O)cc1OC
  A: .	B: 21%[15.4 µM]	C: -27%	D: 9	E: 6.8	F: -4

molecule: O=C(COC(=O)/C=C/c1ccc(OC(F)F)cc1)NCc1cccs1
  A: -11	B: -35%[inhibitor]	C: 8%	D: -14	E: -2.4	F: -1

molecule: Cc1ccc(CNC(=O)COC(=O)C2CCN(S(=O)(=O)c3cccs3)CC2)cc1
  A: 2	B: ?	C: 35µM*	D: 1	E: 7.3	F: 2

# The listing continues.
# Keys – A = CtBP-E1A blk; B = gsp agonist; C = gsp antagonist; D = D2 potentiator; E = D2 agonist; F = Six1-Eya2 inh
molecule: Cc1cccc(CNC(=O)c2cc(S(=O)(=O)N3CCOCC3)cn2C)c1
  A: 1	B: ?	C: 13%	D: -12	E: -4.2	F: 0

molecule: CC(=O)c1c(C)nn(CC(O)Cn2c3c(c4cc(C)ccc42)CCCC3=O)c1C (stereo not drawn)
  A: -6	B: 2%	C: -13%	D: -11	E: -1.3	F: -1

molecule: O=C(CN1CCC(NC(=O)C2CCCCC2)CC1)NCc1ccco1
  A: .	B: 26%	C: 5%	D: -34	E: -0.7	F: -2

molecule: COC(c1ccccc1)c1nnc(CCC(=O)N(C)C(C2CC2)C2CC2)o1 (stereo not drawn)
  A: 7	B: -8%[15.4 µM]	C: 13%	D: -5	E: 4.5	F: -1

molecule: CCC1(C(=O)c2ccccc2)C(c2cccc([N+](=O)[O-])c2)C1(C(=O)OC)C(=O)OC (stereo not drawn)
  A: -8	B: 20%	C: -16%	D: -12	E: -1.6	F: -27

molecule: Cn1c(=O)[nH]c2nc[nH]c2c1=O
  A: 7	B: .	C: -5%	D: -2	E: -3.3	F: 2

molecule: Cc1cc2cc(CNC(=S)NC3CCCCC3)ccc2n1C
  A: .	B: 2%	C: -6%	D: -14	E: 4.6	F: -13

molecule: COC(=O)Cc1nnc(Nc2cccc(C)c2)c2ccccc12
  A: .	B: 1%	C: -11%	D: -18	E: -3.8	F: -1

molecule: O=C(Nc1cc(S(=O)(=O)N2CCOCC2)ccc1N1CCOCC1)c1ccccc1[N+](=O)[O-]
  A: .	B: ?	C: 4%	D: 1	E: -0.6	F: 7

molecule: Nc1c(S(=O)(=O)c2cc(Cl)ccc2Cl)c2nc3ccccc3nc2n1CCN1CCOCC1
  A: 2	B: -38%[inhibitor]	C: ?	D: -14	E: -1.7	F: 7

molecule: CCOC(=O)C1=C(COC(=O)C2(C)CC2(Cl)Cl)NC(=O)NC1c1ccc(OC)cc1 (stereo not drawn)
  A: 1	B: -3%[15.4 µM]	C: .	D: -6	E: 1.6	F: -7

molecule: CCCc1cc(NCCOCCO)n2c(nc3ccccc32)c1C#N
  A: -11	B: ?	C: .	D: -4	E: 0.6	F: -13

molecule: CCn1cc(C(=O)NCCC(=O)OC)c(=O)c2cc3c(cc21)OCO3
  A: 4	B: -35%[inhibitor]	C: 6%	D: 1	E: 6.7	F: 2

molecule: CCCCn1c(N)c(N(CCOC)C(=O)C2CCN(C(=O)c3ccc(F)cc3)CC2)c(=O)[nH]c1=O
  A: -7	B: -81%[inhibitor]	C: 10%	D: 3	E: -3.2	F: 10

molecule: Cc1ccccc1CC(=O)NCc1cccnc1
  A: -6	B: 8%[15.4 µM]	C: 3%	D: -3	E: -1.4	F: -10

molecule: CCC(C(=O)NCC1CCCO1)N(Cc1ccc(F)cc1)C(=O)CNS(=O)(=O)c1ccccc1 (stereo not drawn)
  A: 3	B: -2%[15.4 µM]	C: 5%	D: -7	E: -9.3	F: -8

molecule: CCOC(=O)c1c(NC(=O)c2ccc(Br)o2)sc(C)c1CC
  A: 40	B: -16%	C: -2%	D: -10	E: -2.4	F: 46

molecule: O=C(NCCCO)NC12CC3CC(CC(C3)C1)C2
  A: 0	B: 4%	C: 6%	D: 2	E: -0.2	F: 4

molecule: Cc1ccc(S(=O)(=O)N2CCN(C(=O)c3ccc4ccccc4n3)CC2)c(C)c1
  A: -1	B: -6%	C: -1%	D: 7	E: 0.9	F: 0

molecule: O=C(NC1CCCCC1)C(c1ccc(F)cc1)N(C(=O)c1csnn1)C1CCCC1 (stereo not drawn)
  A: -14	B: -3%[15.4 µM]	C: .	D: -9	E: -3.7	F: 3

# Limited to D2 agonist (2 entries from above):
Compound	D2 agonist
CCn1cc(C(=O)NCCC(=O)OC)c(=O)c2cc3c(cc21)OCO3	6.7
CCCCn1c(N)c(N(CCOC)C(=O)C2CCN(C(=O)c3ccc(F)cc3)CC2)c(=O)[nH]c1=O	-3.2
